Screening results: PubChem, Center for Chemical Genomics, University of Michigan
CDC25B-CDK2 inh = human CDC25B-CDK2/CyclinA binding inhibition; z-score (test concentration not listed); actives 0.72% (n = 94,000); P30305+P24941; AID 1259370; HTRF CDC25B-CDK2/CyclinA binding, anti-His/anti-Flag; stronger effect = higher value;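 note: score is relative to mean and SD of negative controls; strong numbers were not always called active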
TAR Tat displ = HIV-1 TAR-Tat binding disruption; AID 1259389; z-score (test concentration not listed); actives 0.6% (n = 100,000); HIV-1 TAR RNA, Tat peptide displacement FRET; stronger effect = higher value;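 note: score is relative to mean and SD of negative controls; some compounds called inactive have numbers as strong as hits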
Active calls of the source: *; . = not tested or not shown.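 Rule for the calls: active = z-score from 3 up in half or more of its runs; inactive = the rest.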 Random draw from the library. Share with any hit: about 0.9%.

SMILES	CDC25B-CDK2 inh	TAR Tat displ
O=S(=O)(NCC(c1ccco1)N1CCN(c2ccccc2)CC1)c1ccc(Cl)cc1 (configuration not stated)	.	2
Cc1ccc(-c2nnc(C3CCN(S(=O)(=O)c4cccc5nsnc45)CC3)o2)cc1	-0.01	-0.09
Cn1c2c(c(=O)n(C)c1=O)CN(C1CCCC1)CN2	-2.8	-0.66
CCCCN(C)CCNC(=O)c1c(O)nc2ccccn2c1=O	-0.54	0.53
CCOC(=O)CC(=O)CSc1ccc2nnc(-c3ccccc3)n2n1	-2.8	.
CC1=C(c2ccccc2)S(=O)(=O)NC1=NC1CCN(Cc2ccccc2)CC1	-0.93	-0.03
CCc1ccc(OCc2nc(-c3cccnc3)no2)cc1	-1.9	2.8
CCCCCN1C=NS(=O)(=O)c2ccc(C)cc21	.	0.37
COc1ccc(C2c3sc(=O)[nH]c3SC3C(=O)N(c4ccc(Cl)cc4)C(=O)C32)cc1 (configuration not stated)	-0.78	.
O=C(NC1CCCCC1)n1c(=O)oc2ccccc21	-0.38	0.06
O=C(Nc1ccc2c(c1)OCO2)N1CCc2c([nH]c3ccccc23)C1c1ccccc1F (configuration not stated)	.	-1.2
c1ccc(OCc2nc3ccccc3[nH]2)cc1	-1.7	2.3
O=C(Nc1ccccc1Br)N1CCSc2ccccc21	.	0.38
CC(Oc1ccc(Cl)cc1Cl)C(=O)Nc1nccs1 (configuration not stated)	3.4	.
COc1ccc(NC(=O)N2CCn3cccc3C2C(C)C)cc1 (configuration not stated)	.	0.44
CCc1nnc2n1NC(c1ccc(C)cc1)C(C(=O)Nc1cc(C)cc(C)c1)S2 (configuration not stated)	0.21	-0.46
O=C(NCc1ccc2c(c1)OCO2)c1ccc2noc(-c3ccc(Cl)cc3)c2c1	.	1.9
Cc1ccsc1C1NC(=O)c2c(sc3c2CCN(C)C3)N1 (configuration not stated)	-0.68	-5.3
NC(=O)C1CCN(S(=O)(=O)c2ccc3c(c2)OCCO3)CC1	0	0.09
CC(=O)Nc1cc2c(cc1[N+](=O)[O-])-c1cc([N+](=O)[O-])c(NC(C)=O)cc1C2=O	-2.6	.
O=C(Nc1ccc(F)cc1)c1ncoc1-c1cccs1	.	0.6
CCCC(CCC)C(=O)NCCc1cc2ccc(OC)cc2[nH]c1=O	-1.6	.
O=C(CCS(=O)(=O)c1cccc2nonc12)N1CCN(C(c2ccccc2)c2ccccc2)CC1	.	0.11
Cc1oc2ccc(O)c(CN3CCOCC3)c2c1C(=O)OCC(C)C	-0.65	2.5
COCCNc1nc(N)c([N+](=O)[O-])c(Nc2cccc(F)c2)n1	.	1.8
Other records follow.
SMILES	CDC25B-CDK2 inh	TAR Tat displ
CCOC(=O)c1c(NC(=O)CN2CC3(C)CC2CC(C)(C)C3)sc2c1CCC(C)C2 (configuration not stated)	0.99	.
CC(NC(=O)c1nn(C)c2c1CSc1ccccc1-2)c1ccc2c(c1)OCCO2 (configuration not stated)	2.5	1.2
O=C1Nc2ccccc2/C1=C\c1ccc(-c2cc(C(F)(F)F)cc(C(F)(F)F)c2)o1	-1.5	.
CCOC(=O)COc1ccc2c(C)cc(=O)oc2c1	0.36	.
CC1C(=O)Nc2ccc(S(=O)(=O)N3CCN(c4ccccn4)CC3)cc2NC1=O (configuration not stated)	.	2.6
CCOc1ccccc1OCc1nn2c(C(F)(F)F)nnc2s1	0.96	0.07
CCNc1nc(NCC)nc(OCCNS(=O)(=O)c2ccc(C)cc2)n1	0.82	.
CC1=C(c2cccc(Cl)c2)S(=O)(=O)NC1=NCCN1CCOCC1	0.18	1
COC(=O)c1sccc1S(=O)(=O)N1CCCC1	.	2.2
O=C(C1Sc2nnc(-c3ccccc3)n2NC1c1ccc(F)cc1)N1CCOCC1 (configuration not stated)	-0.79	0.26
C[C@H]1[C@H](C)CC[C@]2(CO)CC[C@]3(C)C(=CCC4[C@@]5(C)CC[C@H](O)C(C)(C)C5CC[C@]43C)[C@H]12 (some centres not stated)	.	0.77
CSc1ccc(CN2CCN(S(=O)(=O)c3ccc(Cl)cc3)CC2)cc1	0.41	0.96
CC(C)(C)NS(=O)(=O)NC(C)(C)C	-1.5	.
CCOc1ccc(-c2nc(C#N)c(N3CCN(CC)CC3)o2)cc1	-0.16	1.6
Cc1cc2nc(-c3cc(NC(=O)COc4ccc(Cl)cc4Cl)ccc3O)oc2cc1C	-3.8	.
Cc1c(Cl)cccc1N1CC(O)=C(c2nc3ccccc3c(=O)[nH]2)C1=N	-2.6	1.4
NC(=O)Nc1nc2cc(Br)ccc2[nH]c1=O	-0.61	2.9
Cn1c2c(c(=O)[nH]c1=O)C(c1cccc(F)c1)C1=C(N2)c2ccccc2C1=O (configuration not stated)	-1.1	-1.2
CCOC(=O)c1sc(N/N=C/c2cccs2)c2c1CC(C)(C)CC2=O	0.91	.
CCCCN[C@H]1CS(=O)(=O)C[C@@H]1S(=O)(=O)c1ccc(F)c(C)c1	-1	0.14
CC(C)CN1C(=O)c2ccccc2C(C(=O)NCC2CCCO2)C1c1cccs1 (configuration not stated)	.	2.6
COC(=O)CC(=O)Nc1cc2c(cc1N1CCCC1)n(C)c(=O)n2C	.	0.05
Cc1cc(C)nc(Nc2nc(N)c3ccccc3n2)n1	0.7	4.4
CCCCc1nn2c(=O)cc(COC(=O)c3ccc(Cl)cc3)nc2s1	.	-0.24
Fc1ccc(Cc2nnc(-c3ccccc3)o2)c(Cl)c1	-1.1	0.53

The list goes on; it opens with the 4 that closed the last part.
SMILES	CDC25B-CDK2 inh	TAR Tat displ
COC(=O)CC(=O)Nc1cc2c(cc1N1CCCC1)n(C)c(=O)n2C	.	0.05
Cc1cc(C)nc(Nc2nc(N)c3ccccc3n2)n1	0.7	4.4
CCCCc1nn2c(=O)cc(COC(=O)c3ccc(Cl)cc3)nc2s1	.	-0.24
Fc1ccc(Cc2nnc(-c3ccccc3)o2)c(Cl)c1	-1.1	0.53
CCSCCOC(=O)C1=C(C)NC2=C(C(=O)CC(C)(C)C2)C1c1cccc(Cl)c1 (configuration not stated)	-0.55	1.3
Fc1ccccc1COc1ccccc1-c1nnc(-c2ccccc2)o1	.	1.2
CC(C)NS(=O)(=O)c1ccc(NC(=O)C(C)Sc2nc3c(c(=O)[nH]2)CCCC3)cc1 (configuration not stated)	-1.1	1.8
CNC(=O)c1ccc(C)c(NC(=O)C2=C(C)OCCS2)c1	.	1.3
CCC(=O)Nc1nonc1-c1nc2ccccc2n1CCC(C)C	-0.66	0.1
C=CCN(CC=C)/C(SC)=C(/C#N)C(N)=O	0.47	.
CC1(C)CC(Nc2ncnc3scc(-c4ccccc4)c23)CC(C)(C)N1	-1.6	2.5
Cc1cc(Br)c(NC(=S)NNCCC#N)c(Br)c1	-1.5	.
O=C1CSC(c2ccccc2)N1c1ccc(O)cc1 (configuration not stated)	0.18	-0.67
Cc1cccc(N(C)c2ccc3cc(S(=O)(=O)N4CCCC4)ccc3n2)c1	.	2.5
Cc1ccc(CCNS(=O)(=O)c2ccc(CN3C(=O)c4cccnc4C3=O)s2)cc1	.	-0.75
CN1CCN(c2cc(-c3ccccc3)nc3ccccc23)CC1	1.1	.
Cc1cn2c(=O)cc(COC(=O)COc3ccccc3Cl)nc2s1	.	-0.1
c1ccc(-n2ncc3c2ncn2nc(CSc4nc5ccccc5s4)nc32)cc1	0.39	1.2
Cc1sc(-n2cccc2)c(C(C)NC(=O)Nc2cc(F)ccc2F)c1C (configuration not stated)	-1.3	-0.21
O=C(c1cc(-c2ccc(Cl)cc2)on1)N(Cc1ccco1)Cc1cccs1	-1.1	-0.07
C#CCOc1ccc(Cl)cc1C1C2=C(CCCC2=O)NC2=C1C(=O)CCC2	0.88	-1.5
CCOC(=O)C1=C(C)NC2=C(C(=O)C(C(=O)OC)C(C)C2)C1c1ccccc1C (configuration not stated)	-0.32	1.1
CCOc1cc(/C=C2\SC(=S)N(c3ccccc3)C2=O)cc(Br)c1O	-1.9	.
Cc1cc(-c2ccc(S(=O)(=O)Nc3ccc(Cl)cc3)s2)on1	.	-2
Cn1c(=O)n(Cc2c(F)cccc2Cl)c(=O)c2c1nc1n2CCN1Cc1ccco1	.	4.2
CCOC(=O)N1CCN(C(=O)Cn2ncc3c4ccccc4n(C)c3c2=O)CC1	-0.64	0.09
CCCCN(C)c1ncnc2c1oc1nc3c(cc12)COC(C)(C)C3	.	-0.02
C#CC1(NC(=O)NCCCCCCNC(=O)NC2(C#C)CCCCC2)CCCCC1	-1.6	.
O=C(CCC1CCCC1)Nc1nnc2n1CCCS2	.	0.8
Next results.
SMILES	CDC25B-CDK2 inh	TAR Tat displ
CC/C(=C(/CC)c1ccc(O)cc1)c1ccc(O)cc1	.	0.33
O=C(CSc1nnc2ccc3ccccc3n12)NCc1ccco1	-2.1	.
CCn1cc(S(=O)(=O)c2cccc(Cl)c2)c(=O)c2cc(F)c(N3CCC(C)CC3)cc21	.	0.18
N#Cc1cc2c(nc1SCC(=O)NC1CCCCC1)CCCC2=O	-1.1	1.1
O=C1CC(c2nc3ccccc3[nH]2)CN1c1ccccc1Cl (configuration not stated)	-0.47	0.12
C=CCSc1nc(C)c2cc(C)ccc2n1	0.01	-0.1
CSc1nc(NCCCO)c2sc3nc(C)c4c(c3c2n1)CC(C)(C)OC4	-6	-0.1
Cc1nc2cccc(C)n2c(=O)c1NC(=O)c1ccc2c(c1)OCO2	.	1.6
COc1ccc(C(=O)Sc2ccccc2)cc1	-1.7	.
O=C(CCc1nc(CSc2nc3ccccc3o2)no1)Nc1ccc(F)cc1F	.	2.1
COc1ccc(C2=C(C)C(Nc3ccc4c(c3)OCO4)=NS2(=O)=O)cc1	-0.39	2.2
CCCN1CCN(c2cc3c(cc2F)c(=O)c(S(=O)(=O)c2ccc(Cl)cc2)cn3C)CC1	.	0.89
Cc1ccc(-c2c(NCc3ccc(N(C)C)cc3)c(=O)c2=O)cc1	.	0.43
CCn1c(C(=O)N2CCC(C(=O)N3CCN(c4ncccn4)CC3)CC2)cc2sccc21	-2	.
O=[N+]([O-])c1cc(S(=O)(=O)Nc2ccc3oc4c(c3c2)CCCC4)ccc1Cl	-1.2	.
CSc1ccc(CNCCCSc2nnnn2-c2ccccc2)cc1	-2	0.84
CCC(=O)N1CCc2cc(Br)cc(S(=O)(=O)NCCN3CCOCC3)c21	-1.3	.
c1nc(NCCN2CCOCC2)c2nc3n(c2n1)CCCC3	.	-0.49
CC(C)(C)c1nnc2sc(/C=C/c3ccccc3)nn12	0.07	1.5
CC1=C(C(=O)OC2CCCCC2)C(c2cccc(C)c2)C2=C(CCCC2=O)N1 (configuration not stated)	-1.6	0.81
COc1ccc(OC)c(C2C(C(=O)OCCc3ccccc3)=C(C)NC3=C2C(=O)CC(C)(C)C3)c1 (configuration not stated)	0.54	.
O=C(Nc1ccccc1C(=O)NCCCN1CCOCC1)c1ccccc1	-0.25	.
Cn1nc(C(C)(C)C)cc1C(=O)Nc1cccnc1	-0.86	.
COc1ccc(C2SCCN2S(=O)(=O)c2ccc(F)cc2)cc1OC (configuration not stated)	-1.5	1
O=C(CSC1=NS(=O)(=O)c2ccccc2N1)NCc1ccco1	.	0.15

Record cards, as listed above. Values in the order: CDC25B-CDK2 inh, TAR Tat displ
`NC(=O)Nc1nc2cc(Br)ccc2[nH]c1=O` as listed: -0.61, 2.9
`O=C(NC1CCCCC1)n1c(=O)oc2ccccc21` as listed: -0.38, 0.06

Continuation.
SMILES	CDC25B-CDK2 inh	TAR Tat displ
Cc1nn(CC(=O)NCCc2cccs2)c(=O)c2cc3cc(F)ccc3n12	-1.1	1.1
O=C(O)CCCNC1=NCCC1	-1.7	.
Cc1ccc(NC(=O)c2ccc(Cl)c(Cl)c2)c(C)c1	-0.63	.
O=C1CC(c2cccc(F)c2F)C2=C(CC(c3ccccc3Cl)CC2=O)N1 (configuration not stated)	-1.7	0.46
Cc1cc(C)c2c(n1)sc1c(=O)n(Cc3ccco3)nnc12	-1.4	0
COc1ccc(OCC(O)CNC(C)(C)C)cc1 (configuration not stated)	-0.82	.
CN(CC(=O)NCc1ccc2c(c1)OCO2)S(=O)(=O)c1ccc(Br)s1	-1.6	.
COc1ccc(OCC(O)CNC(=O)c2cc(C)on2)cc1 (configuration not stated)	-2.2	.
CCS(=O)(=O)CS(=O)(=O)CC	-0.73	.
Cc1cc(=O)n2nc(N3CCCC(C(=O)NC4CCCC4)C3)sc2n1 (configuration not stated)	-0.92	3
O=C(NCCc1c[nH]c2ccccc12)c1cc2n(n1)C(C(F)(F)F)CC(c1ccc3c(c1)OCO3)N2 (configuration not stated)	.	0.56
CCCCN(CC)S(=O)(=O)c1ccc(-c2cc(C(F)(F)F)on2)s1	.	1.4
Cc1ccc(CNS(=O)(=O)c2cc(-c3ccc(=O)[nH]n3)cc(C)c2C)cc1	.	1.3
CC(C)(C)S(=O)(=O)/C(C#N)=C/N=S(C)(=O)c1ccccc1 (configuration not stated)	-0.38	.
CCCNC(=O)CSc1cn(CC(=O)N2CCCC2)c2ccccc12	.	-1.4
CC1=C(C(=O)OC(C)C)C(c2ccc3c(c2)OCO3)C2=C(CC(c3cccs3)CC2=O)N1 (configuration not stated)	-0.84	-0.28

4 of these compounds, reformatted:
> CCCCN(CC)S(=O)(=O)c1ccc(-c2cc(C(F)(F)F)on2)s1
  CDC25B-CDK2 inh: .; TAR Tat displ: 1.4
> Cc1ccc(NC(=O)c2ccc(Cl)c(Cl)c2)c(C)c1
  CDC25B-CDK2 inh: -0.63; TAR Tat displ: .
> CC(C)(C)S(=O)(=O)/C(C#N)=C/N=S(C)(=O)c1ccccc1 (configuration not stated)
  CDC25B-CDK2 inh: -0.38; TAR Tat displ: .
> CCCNC(=O)CSc1cn(CC(=O)N2CCCC2)c2ccccc12
  CDC25B-CDK2 inh: .; TAR Tat displ: -1.4
